AmpC nodet inh: blocks E. coli AmpC beta-lactamase in absence of detergent | P00811 | AmpC nitrocefin hydrolysis, absorbance 480 nm, no detergent; potencies from a single point are estimates | Potency, µM (highest dose often 28.7 µM), for inactives: at the top dose activity change, negative = inhibition | 71,000 tested, 1.8% active; active = falling curve, for most hits resting on a single point; inconclusive = weak or doubtful change; inactive = flat or rising curve; further: % of control where 0% means no effect; about half of the hits show no inhibition at the top dose; a quarter of the inactives give rising signals
Target sequence (P00811 whole entry, looked up): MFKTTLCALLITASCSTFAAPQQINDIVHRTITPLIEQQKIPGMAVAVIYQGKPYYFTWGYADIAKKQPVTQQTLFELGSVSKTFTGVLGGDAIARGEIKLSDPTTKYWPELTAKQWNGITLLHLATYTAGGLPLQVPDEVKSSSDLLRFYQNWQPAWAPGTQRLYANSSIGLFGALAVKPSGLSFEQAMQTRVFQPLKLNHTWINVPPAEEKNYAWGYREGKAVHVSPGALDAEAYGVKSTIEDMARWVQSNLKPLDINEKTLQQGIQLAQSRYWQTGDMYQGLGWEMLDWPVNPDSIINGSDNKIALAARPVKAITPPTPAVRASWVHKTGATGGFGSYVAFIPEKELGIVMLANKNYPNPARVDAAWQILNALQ
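AmpC, 20 mM phosphate pH 7.0; 15 min cpd preinc, RT; start with nitrocefin (800 uM stock); A480 kinetic read, 20 s intervals, 4 min. No-enzyme wells = negative control.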
Active calls of the source: *; ? = inconclusive; [ ] = dose if it differs, or a comment. Potency means the concentration at half of the fitted maximal effect. A portion of the library; rates above refer to the full screens.

SMILES,AmpC nodet inh
Cc1ccc(NC2=NC(C(=O)Nc3ccc(C)c(C)c3)CC(=O)N2)cc1 (centres undefined),34%
CCOc1ccccc1NC(=O)N1CCCC(c2nc3c(nnn3Cc3ccc(C)cc3)c(=O)[nH]2)C1 (centres undefined),49%
COCCN(C(=O)Cn1nnc2ccccc21)C(C(=O)NC1CCCC1)c1cc(OC)ccc1OC (centres undefined),53%
CCOC(=O)c1c(NC(=O)c2ccco2)sc2c1CCCCC2,-9%
COc1ccccc1NC(=O)COc1cccc(-n2cnnn2)c1,-2%
Cn1c(NCc2ccccc2)cc(=O)n(C)c1=O,-2%
Cc1cc(C)c2c(CC(=O)Nc3ccc(Cl)cn3)coc2c1,-13%
COc1ccc(OC)c(NC(=O)NC2(C(F)(F)F)Oc3ccccc3O2)c1,-23%
O=C(c1cc2ccccc2o1)N1CCCCCC1,4%
CN(C)c1ccc(CNCCC2(O)CCOC(C)(C)C2)cc1 (centres undefined),-5%
O=C(Nc1cccnc1)c1noc2c1CCCC2,4%
Cc1cc(NC(=O)c2ocnc2C)no1,1%
Cc1ccc(S(=O)(=O)N2CCC(C(=O)NCCCN3CCCCCC3)CC2)cc1,20%
O=C(O)CCCC(=O)Nc1ccc(N2CCCC2)cc1,-2%
O=c1[nH]n(-c2ccccn2)c(=O)c2ccccc12,2%
COc1ccc(OC)c(NS(=O)(=O)c2ccc3c(c2)n(C)c(=O)n3C)c1,44%
N[C@@H](Cc1ccccc1)c1nnc(SCc2ccccc2F)o1,5%
O=C(Cc1c[nH]c2ccccc12)NCc1ccc2c(c1)OCO2,-15%
Cc1cc(C)nc(-n2nc(C)c3c(C(F)F)cc(C)nc32)n1,4%
CCOC(=O)Cc1csc(NC(=O)C2CCCN(S(=O)(=O)c3cnc[nH]3)C2)n1 (centres undefined),-1%
CCc1cc2c(CN3CCN(C)CC3)cc(=O)oc2cc1O,5%
COc1cc(OC)cc(C(=O)Nc2ncc3c(n2)CC(C)(C)CC3=O)c1,5%
COC(=O)COc1cc(C)cc2oc(=O)c(CC(=O)OC)c(C)c12,18%
CCOC(=O)C1CCCN(c2c(Nc3ccc(C)c(C)c3)c(=O)c2=O)C1 (centres undefined),3.2µM*[single pt active]
Cc1cccc(C(=O)Nc2ccccc2C(=O)OCc2c(C)noc2C)c1,20%
c1ccc(C2CC3CC(c4ccco4)N2O3)cc1 (centres undefined),-4%
Nc1ccccc1O,-4%
O=C(Nc1c(C(=O)Nc2ccccc2)cnn1-c1ccccc1)c1ccco1,-18%
CCCCNc1cc(C)oc(=O)c1C(C)=O,8%
Cc1ccc(S(=O)(=O)N(C)CC(=O)Nc2cccc(C)n2)cc1,7%
O=C(Nc1cc(C(F)(F)F)ccc1N1CCOCC1)c1ccc(Br)o1,6%
O=C(O)CCc1ccc(-c2ccccc2)n1CC(=O)O,-6%
O=S(=O)(NCCOCC(F)(F)C(F)F)c1ccc2oc3ccccc3c2c1,13%
Cn1c(CN2CCCC2)nc2cc(NC(=O)c3ccco3)ccc21,-13%
Cc1c(NS(=O)(=O)c2ccc3c(c2)CCN3C(=O)C2CC2)c(=O)n(-c2ccccc2)n1C,6%
O=C1NC(Cc2c[nH]c3ccccc23)C(=O)N1CCOc1ccccc1 (centres undefined),12%
CCc1c(C(=O)Nc2ccc(S(=O)(=O)N3CCOCC3)cc2)csc1C,15%
CCc1nc2ccccc2c(NC(=O)CN2CCC(C)CC2)c1C,10%
CCSC1=N/C(=C\c2ccc(C(=O)O)cc2)C(=O)S1,-11%
OC(CN1C2=NCCN2c2ccccc21)c1ccc2c(c1)OCO2 (centres undefined),-20%
Cc1cc(C)c2c(CC(=O)Nc3nccs3)coc2c1,-14%
Nc1cc(N)nc(SCCOc2ccccc2F)n1,?
COCCCNC(CC(=O)Nc1ccc(OC)cc1OC)C(=O)O (centres undefined),-2%
Cc1cccc(NC(=O)CN2C(=O)COc3ccc(Cl)cc32)c1C,4%
COc1ccc(N(CC(=O)NCc2ccco2)S(=O)(=O)c2ccc(OC)c(OC)c2)cc1,60%

Reprinted at random: 3 entries already listed.
SMILES,AmpC nodet inh
Nc1cc(N)nc(SCCOc2ccccc2F)n1,?
Cc1c(NS(=O)(=O)c2ccc3c(c2)CCN3C(=O)C2CC2)c(=O)n(-c2ccccc2)n1C,6%
CCc1c(C(=O)Nc2ccc(S(=O)(=O)N3CCOCC3)cc2)csc1C,15%

Additional compounds
SMILES,AmpC nodet inh
COC(=O)c1ccc(C(=O)OC)c(NS(C)(=O)=O)c1,12%
O=c1cc(N2CCN(c3ccccc3)CC2)[nH]c(=O)n1C1CCCCC1,-13%
Cc1ccccc1NS(=O)(=O)c1ccc(C2CNC(=O)C2)cc1 (centres undefined),0%
COc1ccc(C)cc1S(=O)(=O)Nc1cccnc1,-1%
O=C(O)c1cc(-c2ccccc2Cl)n[nH]1,-8%
CCc1ccccc1NC(=O)CSc1nnc([C@@H](N)Cc2c[nH]c3ccccc23)o1,44%
Cc1ccc(CNC(=O)C2CCCCC2C(=O)O)cc1 (centres undefined),1%
O=C(c1ccc(CS(=O)(=O)c2ccc(Br)cc2)o1)N1CCN(C2CCCCC2)CC1,-2%
C=C(C)c1cccc(C(C)(C)NC(=O)N2CCOCC2)c1,9%
O=C(NCCN1CCCC1)c1ccc2c(c1)N(Cc1ccc(F)cc1)C(=O)c1ccccc1S2=O (centres undefined),80%
COc1ccc2nc(NC(=O)C3CCCN(S(=O)(=O)c4cccc5nonc45)C3)sc2c1 (centres undefined),-3%
O=C(c1ccc2c(c1)OCCO2)C1CCN(S(=O)(=O)c2ccc(F)cc2)CC1,15%
Cc1cc2c(s1)NC(=O)CN=C2c1cccs1,-13%
Nc1c(C(=O)c2ccc(Br)s2)oc2ccccc12,6%
Cc1cc(C)c(C#N)c(SCC(=O)N2CCCCC2)n1,-4%
COc1ccc(CNc2ncncc2-c2ccccc2CN(C)C)c(OC)c1,21%
O=C(c1cccc(F)c1)N1CCC2(CCCN(c3ncccn3)C2)CC1,60%
COCCCN1C(=O)C(=O)/C(=C(/O)c2ccc(OC)cc2)C1c1cccc(OC)c1 (centres undefined),-14%
Clc1ccccc1OCCn1ccnc1,26%
O=C(c1cccc(F)c1)N1CCC2(CCCN(C(c3ccccc3)c3ccccc3)C2)CC1,32%
COC(=O)COc1cc(C)cc2oc(=O)c3c(c12)CCCC3,18%
COc1ccc(-c2nnc3sc(-c4ccc(Br)o4)nn23)cc1OC,46%
Cc1noc(/C=C/c2ccco2)c1S(=O)(=O)N1CCC(C(=O)N2c3ccccc3CC2C)CC1 (centres undefined),14%
CCc1ccc2oc(-c3cc(N=Cc4cccc(OC)c4O)ccc3O)nc2c1,6%
N#Cc1c(-c2ccco2)nc(NCC2CCCO2)[nH]c1=O (centres undefined),-9%
O=S1(=O)N=C(Nc2ccc(S(=O)(=O)N3CCCCC3)cc2)c2ccccc21,-6%
CCN1CCN(C(=O)c2sc3nc(C)nc(N4CCC(C)CC4)c3c2C)CC1,120%
CCn1c(COc2cccc(C)c2)nnc1SCC(=O)CC(=O)Nc1ccccc1OC,59%
COc1cccc(C(C(=O)NC(C)(C)C)N(C(=O)CCC(=O)Nc2cc(C)on2)C2CC2)c1OC (centres undefined),71%
NC(N)=NC(N)=NCCc1ccccc1,-4%
Cc1cccn2c(=O)c3cc(C(=O)N4c5ccccc5CC4C)n(C)c3nc12 (centres undefined),48%
Cn1c(SCC(=O)Nc2ccccc2)nc(O)cc1=O,-4%
Cc1nc2scc(-c3ccco3)c2c(=O)n1/N=C/N(C)C,14%
CCc1ccc2[nH]c(=O)c(CN(CCCN3CCOCC3)C(=O)Nc3ccccc3)cc2c1,121%
O=C(c1cccc(Cl)c1)N1CCN(Cc2ccccc2F)CC1,77%
C=C(C)c1ccccc1,10%
Cc1ccc(S(=O)(=O)N2CCCN(S(=O)(=O)c3ccc(C(F)(F)F)cc3)CC2)cc1,7%
CCC(c1nnnn1CCOC)N1CCN(Cc2ccccc2)CC1 (centres undefined),1%
COc1cccc(-c2nnc(SCC(=O)OC(C)C)n2N)c1,38%
Cc1ccccc1CS(=O)(=O)Cc1ccc(C(=O)N2CCC3(CC2)OCCO3)o1,12%
Cc1nnc2sc(-c3cccc(NC(=O)c4ccc(-c5cccc(Cl)c5)o4)c3)nn12,25%
O=S(=O)(O)c1ccc(N=Nc2ccc3c(S(=O)(=O)O)cccc3c2O)c2ccccc12,-2%[5.75 µM]
C=CCn1c(Cc2cccs2)nnc1SCC(=O)Nc1ccc(OC)c(OC)c1,24%
COc1ccc(OC)c(NC(=O)CSc2nc(N)c(-c3ccccc3)c(=O)[nH]2)c1,-7%
Cc1ccc2[nH]c(=O)c(CN(CC3CCCO3)S(=O)(=O)c3cccc4nsnc34)cc2c1 (centres undefined),87%
CCc1nnc(NC(=O)CSc2nc3ccccc3s2)s1,-13%
COc1ccc(N2CCN(C(=O)CSc3ccccc3)CC2)cc1,46%
CCCCCC1=C2CNC(CCC)(C(=O)OC)C=C2C(C)C1=O (centres undefined),77%
Nc1nc(-c2ccccc2)cs1,-13%
Cc1ccc2c(c1)C1CN(C)CCC1N2CC(=O)N(C)c1ccccc1 (centres undefined),12%
O=C(COC(=O)c1cccs1)c1ccccc1,-20%
N[C@@H](CCP(=O)(O)O)C(=O)O,-1%[5.75 µM]
O=C(NCc1ccc2c(c1)OCO2)c1ccc(NC(=O)C2CCCO2)cc1 (centres undefined),-6%
COCCN1C(=O)C(=O)/C(=C(/O)c2cccc(OC)c2)C1c1ccc(C)o1 (centres undefined),-4%
COc1ccccc1Oc1ccccc1C(=O)O,-6%
CN(CCCNC(=O)C1CCN(S(=O)(=O)c2cccc3nsnc23)CC1)Cc1ccccc1,8%
N#Cc1cccc(NC(=O)NCCc2c[nH]c3ccccc23)c1,4µM*[single pt active]
Brc1ccc(-c2noc(COc3ccc4c(c3)CCC4)n2)o1,-19%
CCC(C)(C)NC(=O)C(c1ccco1)N(C(=O)c1csnn1)c1cccc(F)c1 (centres undefined),22%
CN(C)c1ccc(C(=S)N2CCOCC2)cc1,-5%

The list continues.
SMILES,AmpC nodet inh
COc1ccc(-n2c(Cc3cccn3C)nnc2SCC(=O)Nc2cccc(F)c2)cc1,84%
COc1ccc(Cl)cc1C(=O)NCCc1ccc(S(=O)(=O)NC(=O)NC2CCCCC2)cc1,20%
Cc1ccc(S(=O)(=O)N2CCCC2C(=O)n2nc(C)cc2C)cc1 (centres undefined),18%
CCOC(=O)N1CCN(C(=O)c2cnsn2)CC1,-4%
COc1ccccc1-c1nccc(NCc2cccs2)n1,52%
CC(C)c1nc(SCC(=O)Nc2ccc3c(c2)OCCO3)c2c(=O)n(C)c(=O)n(C)c2n1,10%
N#Cc1nc(-c2ccc(OCc3ccccc3)cc2)oc1NCCCN1CCOCC1,128%
CCOc1cc(-c2noc(CCC(=O)N3CCOCC3)n2)ccc1OC,12%
CN1CCN(c2ncc3nc(-c4ccccc4)c(=O)n(-c4ccccc4)c3n2)CC1,82%
CCOC(=O)c1oc2cccc(O)c2c1CN1CCOCC1,20%
C[C@@H](C(=O)NCc1ccccn1)[C@H]1C[C@]1(C)[C@H](NC(=O)OCc1ccccc1)c1ccccc1,99%
Cc1nnc(NC2(C(F)(F)F)C(=O)Nc3c2c(=O)n(C)c(=O)n3C)s1 (centres undefined),-7%
CN(C)CCN(C)Cc1ccc2c(c1)Cc1ccccc1-2,32%
Cn1c(=O)n(C/C=C/c2ccccc2)c(=O)c2c1nc1n2CCCN1c1ccc(F)cc1,71%
c1ccc(Nc2ncnc3ccc(-c4ccoc4)cc23)cc1,-5%
NC(N)=NC[C@@H]1COC2(CCCCC2)O1,-6%[12.8 µM]
Cc1cc(C)n2nc(SCn3nnc4ccccc4c3=O)nc2n1,0%
O=C(CCN1C(=O)COc2ccccc21)NCc1ccco1,-3%
CCc1c2c(nc3cccc(SC)c13)COC2,67%
O=C(Nc1ccc2c(c1)OCO2)C1CCCN(c2nc3ccccc3s2)C1 (centres undefined),37%
Cn1c(CC(=O)Nc2ccccc2)nnc1SCC(=O)c1ccccc1,11%
CCOCCCNC(=O)C(NC(=O)c1ccc(=O)[nH]c1)c1ccccc1 (centres undefined),-5%
Cc1nc(-c2ccc(C(=O)O)cc2)cs1,-14%
COC(=O)c1ccc(C)c(NS(=O)(=O)c2ccc(NC(C)=O)cc2)c1,-5%
Cc1cc(C)n(-c2nnc3n2N=C(c2ccccc2)CS3)n1,23%
N#Cc1nc(-c2ccccc2F)oc1NCCN1CCOCC1,4µM*[single pt active]

Rewritten field by field: entries from further up.
O=C(Nc1ccc2c(c1)OCO2)C1CCCN(c2nc3ccccc3s2)C1 (centres undefined)
  AmpC nodet inh: 37%

Cc1cc(C)n(-c2nnc3n2N=C(c2ccccc2)CS3)n1
  AmpC nodet inh: 23%

CCOCCCNC(=O)C(NC(=O)c1ccc(=O)[nH]c1)c1ccccc1 (centres undefined)
  AmpC nodet inh: -5%

CCc1c2c(nc3cccc(SC)c13)COC2
  AmpC nodet inh: 67%

High-throughput results from PubChem.
